Source: PubChem
Mtb H37Rv = M. tuberculosis H37Rv growth inhibitors, H37Rv strain (AID 1626); M. tuberculosis H37Rv growth inhibition; higher % means a stronger effect; one-dose inhibition, % at 10 µM; IC50 in µM for titrated hits; 220,000 compounds, 0.95% hits;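 active = confirmed in a dose series; inconclusive = inhibition above 80% but not taken into the dose series; inactive = below 80% or under 30% at every dose of the series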;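 also: bacteria incubated seven days before Alamar blue readout; 0% = bacteria only wells and 100% = bacteria with antibiotic wells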
Mtb bLac sens = beta-lactam sensitization of Mtb H37Rv, H37Rv; inhibition, % at 25 µM; M. tuberculosis H37Rv growth with meropenem, percent inhibition; hits of this screen are not shown here; 330,000 compounds, 0.27% hits;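 active = about 74% or more and at least 40 points above the plate without the antibiotic, then above 30% in a dose series; inconclusive = first-round hits that could not be retested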;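 also: growth measured after seven days incubation then overnight dye step; 0% = bacteria only wells and 100% = bacteria with antibiotic; twin plates without the antibiotic show which effects depend on it; some results filed as inactive read as strong as hits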
RecA splice inh = Mtb RecA intein splicing inhibitors, primary screen, biochemical, fluorescence, HTS. inhibition, %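 (about 9 µM by stock and volumes)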. cell-free RecA intein splicing. 290,000 compounds, 0.75% hits. Protein RecA (Mycobacterium tuberculosis (strain ATCC 25618 / H37Rv)), P9WHJ3; in the data active = inhibition above about 30%; inconclusive = no clear call, values can overlap the other calls;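 also: 0% = vehicle wells and 100% = reference inhibitor control wells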
Target sequence (P9WHJ3 whole entry, looked up, canonical isoform): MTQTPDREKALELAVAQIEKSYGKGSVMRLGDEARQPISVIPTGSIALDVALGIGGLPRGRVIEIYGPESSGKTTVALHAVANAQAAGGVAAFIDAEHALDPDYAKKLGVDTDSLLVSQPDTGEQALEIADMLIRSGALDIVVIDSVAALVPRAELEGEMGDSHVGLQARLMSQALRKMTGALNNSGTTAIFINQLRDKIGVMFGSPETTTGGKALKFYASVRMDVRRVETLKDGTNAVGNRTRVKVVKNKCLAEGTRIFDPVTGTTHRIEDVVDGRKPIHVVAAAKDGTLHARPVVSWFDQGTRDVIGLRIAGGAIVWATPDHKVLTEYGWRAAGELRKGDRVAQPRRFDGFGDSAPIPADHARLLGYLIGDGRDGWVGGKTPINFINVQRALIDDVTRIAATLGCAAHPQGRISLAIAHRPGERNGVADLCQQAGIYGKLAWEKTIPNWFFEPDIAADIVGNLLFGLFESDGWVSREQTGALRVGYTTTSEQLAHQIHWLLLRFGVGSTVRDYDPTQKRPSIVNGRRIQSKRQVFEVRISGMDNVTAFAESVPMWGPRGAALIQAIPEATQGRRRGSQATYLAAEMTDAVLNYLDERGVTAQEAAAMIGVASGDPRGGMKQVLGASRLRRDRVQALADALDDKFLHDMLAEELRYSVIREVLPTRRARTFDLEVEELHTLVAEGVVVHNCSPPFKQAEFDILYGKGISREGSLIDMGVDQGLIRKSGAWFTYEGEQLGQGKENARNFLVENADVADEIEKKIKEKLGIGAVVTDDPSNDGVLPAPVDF
Arbovirus inh = antivirals against arbovirus infection, primary screen, cell-based, full library, 10K replicate subset. arbovirus infection cell-based antiviral screen. inhibition, % at 10 µM. 200,000 compounds, 0.37% hits. AID 1251, 2008;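 active = inhibition from about 30%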;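 also: bluetongue infection of BSR cells; cell survival read as ATP light after 72 h; 0% = infected wells without compound and 100% = uninfected wells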
YopH PTP inh = YopH tyrosine phosphatase inhibitors, primary screen, biochemical, fluorescence Ex485/Em525; YopH tyrosine phosphatase [Yersinia enterocolitica]; inhibition, %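 (about 10 µM by stock and volumes)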; 140,000 compounds, 0.16% hits; AID 898, 2007;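 active = inhibition of 50% or more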;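 also: controls were vehicle for no effect and minimum signal wells for full effect; inactives centre near -20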
Arbovirus inh repeat = recorded beside Arbovirus inh, whose call it bears; inhibition, %; measured here: 10K subset replicate screen; many hits read low in the repeat;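 first of two repeat runs on a subset; 0% = infected and 100% = uninfected wells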
Active calls of the source: *; ? = inconclusive; · = no result given. This is a subset; the hit share may differ from the screen's.

SMILES	Mtb H37Rv	Mtb bLac sens	RecA splice inh	Arbovirus inh	YopH PTP inh	others
COc1cc(/C=C2/SC(=S)N(c3ccccc3)C2=O)ccc1Oc1nc(N2CCOCC2)nc(N2CCOCC2)n1	4%	9	1.1	4	-8
COc1cc2c(=O)n(CCC(=O)NCC3CCCO3)c(=O)n(CC(=O)Nc3ccc(C)cc3C)c2cc1OC (stereo not drawn)	·	-1	21	·	·
CSc1ccc(S(=O)(=O)NC2CC2)cc1	·	5	-0.5	·	·
CC(=O)c1cc(F)c(N2CCOCC2)cc1C	-4%	2	-2.9	-3	-20
Cc1ccc2[nH]c3c(N4CCOCC4)ncnc3c2c1	-14%	0	0.5	-6	0
C=C(C)Cn1c(SCCCO)nc2c1c(=O)[nH]c(=O)n2C	-7%	-4	3.1	-8	-38
CNP(=O)(Oc1ccccc1)OC12CC3CC(CC(C3)C1)C2 (stereo not drawn)	-1%	-1	0.5	3	·
CC(C)C(=O)NN(C(=O)c1ccccc1)c1ccccc1	6%	-9	1.0	3	·
CCN(C(=O)COC(=O)/C=C/c1nc2ccccc2s1)C1CCS(=O)(=O)C1 (stereo not drawn)	2%	9	-5.8	10	·
O=C(CN(C(=O)c1csnn1)c1cccc2ccccc12)NCc1ccc(F)cc1	·	-1	0.9	·	·
COc1ccc2c(c1)[nH]c1c(=O)n(Cc3ccncc3)cnc12	-4%	3	-1.5	·	·
OCC1CCCN(Cc2cn(Cc3ccccc3)nc2-c2cc3ccccc3o2)C1 (stereo not drawn)	-4%	-8	-3.2	-18	·
O=C(NN=C(Cc1ccccc1)Cc1ccccc1)C1CC1	-3%	1	-0.1	-7	·
Cc1nnc(N/N=C/c2ccc(-c3ccccc3F)o2)n1N	19%	99	1.6	-12	·
CCOC(=O)c1ccc(NC(=O)CCC2COc3ccccc3O2)cc1 (stereo not drawn)	3.3µM*	100	3.1	-8	-6
CCOc1ccc(C(=O)Nc2ccc(N3CCN(C)CC3)cc2)cc1Br	10%	40	1.9	-16	-14
CCc1ccc(/C(C)=N/NC(=O)c2ccccn2)cc1	-2%	5	-2.2	19	·
c1ccc(-c2nc3ccccn3c2NC2CCCC2)nc1	?	100	2.4	-32	·
Cn1c(CCCOc2ccc(Cl)cc2Cl)nnc1SCC(=O)Nc1cccc(F)c1	-10%	-1	-2.2	6	-20
O=C(CN1CCN(c2ccc(O)cc2)CC1)Nc1ccc2c(c1)OCCO2	1%	-2	-10	-17	·
CC1=NN(c2ccccc2)C(=O)C1c1ccccc1 (stereo not drawn)	5%	8	-4.9	1	-8
Nc1nc(Nc2ccccc2F)sc1C(=O)c1ccccc1	·	0	7.2	·	·
CN1/C(=C\C(=O)COC(=O)c2ccc([N+](=O)[O-])o2)C(C)(C)c2ccccc21	67%	99	-2.0	5	·
CCCCCCc1ccc(OCC(=O)OC)cc1OCC(=O)OC	1.8µM*	99	1.4	7	-28
N#CC1=C(N)Oc2n[nH]c(-c3cccs3)c2C1c1cccs1 (stereo not drawn)	-2%	6	79*	-5	-26

3 entries already listed, sorted by count of non-hydrogen atoms, lowest first.
SMILES	Mtb H37Rv	Mtb bLac sens	RecA splice inh	Arbovirus inh	YopH PTP inh	others
CNP(=O)(Oc1ccccc1)OC12CC3CC(CC(C3)C1)C2 (stereo not drawn)	-1%	-1	0.5	3	·
CN1/C(=C\C(=O)COC(=O)c2ccc([N+](=O)[O-])o2)C(C)(C)c2ccccc21	67%	99	-2.0	5	·
COc1cc2c(=O)n(CCC(=O)NCC3CCCO3)c(=O)n(CC(=O)Nc3ccc(C)cc3C)c2cc1OC (stereo not drawn)	·	-1	21	·	·

(further entries)
SMILES	Mtb H37Rv	Mtb bLac sens	RecA splice inh	Arbovirus inh	YopH PTP inh	others
O=C(Cc1ccc(NS(=O)(=O)c2cccc(C(F)(F)F)c2)cc1)NCCN1CCOCC1	·	-8	-0.8	·	·
CC(=O)NN1C(=O)/C(=C\c2ccccc2)SC1=S	·	-11	-7.1	5	-10
CN(CC(=O)Nc1ccc(F)c(F)c1F)C(=O)CN1C(=O)C2CCCCC2C1=O (stereo not drawn)	·	-8	-1.1	·	·
Cc1ccc(NC(=O)N/C=C/c2ccco2)cc1	4%	3	4.2	5	-37
N#C/C(C(=S)Nc1ccccc1)=C1/NN=C(N2CCOCC2)N1c1ccccc1	0%	73	-2.0	-2	·
Cc1ccc(C2CC(c3ccccc3)=NN2C(=O)CSc2nnc(-c3ccc(Cl)cc3)o2)o1 (stereo not drawn)	3%	13	1.0	-6	0
CSc1nnc2c3cc(C)ccc3n(Cc3ccccc3)c2n1	7%	14	0.3	-9	0
Cc1ccc(C(=O)NC(NCc2ccccc2)C(Cl)(Cl)Cl)cc1 (stereo not drawn)	3%	2	-0.8	-1	-38
Cc1ccccc1C1N(c2nccs2)C(=O)C2CCCN21 (stereo not drawn)	-7%	-5	-0.5	-3	·
CCC(=O)OC1(C)C(=O)C=C2C=C(C3CC3)OC=C2C1=O (stereo not drawn)	-7%	-8	-11	·	·
CCOC(=O)c1c(-c2ccc(OC)cc2)csc1NC(=O)CSc1ncnc2sccc12	8%	9	3.0	15	-22
Cc1csc(NC(=O)c2ccc(C)c(S(=O)(=O)N3CCCCC3)c2)n1	3%	?	·	31*	-30
Clc1ccc(-c2nnc(-c3cccc4ccccc34)o2)cc1Cl	13%	-4	2.0	·	·
COc1ccc(S(=O)(=O)NCCc2cc3ccc(C)c(C)c3[nH]c2=O)cc1	·	-3	-5.1	·	·
COc1ccc(CCC(=O)NCC23CC4CC(CC(C4)C2)C3)cc1	·	4	3.5	·	·
Cn1ccnc1SCC(=O)N1CCN(S(=O)(=O)c2ccccc2)CC1	0%	1	-5.1	7	·
Cc1cc(C)c(C(N)=O)c(Nc2cccc3ccccc23)n1	4%	-7	2.4	-18	-21
COc1ccc(CCNc2nc(-c3cccnc3)nc3ccccc23)cc1OC	·	4	-2.8	·	·
O=C(NC(Cc1ccccc1)C(=O)O)/C(=C\c1ccco1)NC(=O)c1ccccc1 (stereo not drawn)	-9%	2	-4.7	-2	-21
CC(C)(C)c1ccc(Oc2ccc(NC(=O)c3ccco3)cn2)cc1	-11%	3	4.3	·	·
CSCC[C@H](NC(=O)OC(C)(C)C)C(=O)N1CCC(C(=O)N[C@@H](C)C(=O)O)CC1	-7%	-3	1.7	5	-28
O=C(NC(=S)Nc1ccccc1N1CCOCC1)c1ccc(-c2ccccc2F)o1	0%	1	3.9	·	·
Cc1cccc(NC(=S)N2CC3CC(C2)c2cccc(=O)n2C3)c1C (stereo not drawn)	1%	-4	-0.7	0	-11
COc1ccccc1OCc1nc(-c2ccc([N+](=O)[O-])cc2)no1	2%	?	-0.7	0	-19
CCc1cccc2c(C(=O)CN3C(=O)NC(C)(c4cccc5ccccc45)C3=O)c[nH]c12 (stereo not drawn)	21%	-4	3.6	-22	·

For convenience, part of the list above.
SMILES	Mtb H37Rv	Mtb bLac sens	RecA splice inh	Arbovirus inh	YopH PTP inh	others
COc1cc(/C=C2/SC(=S)N(c3ccccc3)C2=O)ccc1Oc1nc(N2CCOCC2)nc(N2CCOCC2)n1	4%	9	1.1	4	-8
COc1cc2c(=O)n(CCC(=O)NCC3CCCO3)c(=O)n(CC(=O)Nc3ccc(C)cc3C)c2cc1OC (stereo not drawn)	·	-1	21	·	·
CSc1ccc(S(=O)(=O)NC2CC2)cc1	·	5	-0.5	·	·
CC(=O)c1cc(F)c(N2CCOCC2)cc1C	-4%	2	-2.9	-3	-20
Cc1ccc2[nH]c3c(N4CCOCC4)ncnc3c2c1	-14%	0	0.5	-6	0

Other compounds.
SMILES	Mtb H37Rv	Mtb bLac sens	RecA splice inh	Arbovirus inh	YopH PTP inh	others
Cn1c(CN2CCCC2)c(C#N)c2ccccc21	-2%	1	0.9	5	·
CCOC(=O)c1ccc(NC(=O)N2CCN(c3ccccc3OC)CC2)cc1	80%	9	·	2	·
Cc1cc2c(c(=O)n1Cc1cccnc1)C(c1ccccc1)C(C#N)=C(N)O2 (stereo not drawn)	-10%	-13	-0.7	-6	-48
CCc1nonc1NC(=O)c1oc2ccc(Cl)cc2c1C	·	4	1.0	·	·
O=C(Nc1ccc(S(=O)(=O)N2CCCCC2)cc1)c1ccc(F)cc1	·	0	3.5	·	·
O/N=C/c1ccc(OCc2ccccc2)c(Br)c1	35%	-6	12	-6	-8
CC(=O)c1ccc(OC(=O)C2CC(=O)N(c3cccc(C)c3)C2)cc1 (stereo not drawn)	3%	1	22	2	-42
COc1ccccc1CCC(=O)OCC(=O)c1c(N)n(CC(C)C)c(=O)n(C)c1=O	·	-9	3.0	·	·
COc1ccccc1/C=C/C(=O)OCC(=O)Nc1cc(C(F)(F)F)ccc1N1CCOCC1	-1%	·	0.3	-13	-29
COc1ccc(/C=N/N2CCN(c3ccccc3OC)CC2)cc1OC	1%	-8	0.3	0	-12
CC(C)Nc1nc(NC(C)C)nc(N(C#N)C(C)C(=O)N(C)C)n1 (stereo not drawn)	-1%	·	0.8	-5	·
CCN(CC(=O)Nc1ccccc1OC)C(=O)c1cccc(-n2cccc2)c1	·	-11	1.5	·	·
O=C(N/N=C/c1cccnc1)c1ccccc1OCc1ccc(Cl)cc1	10%	11	·	-17	·
COc1ccc(C2C(C(=O)N3CCN(c4ccccc4)CC3)c3ccccc3C(=O)N2C)cc1OC (stereo not drawn)	-3%	-4	2.4	5	-1	Arbovirus inh repeat=-2
CCOc1cc(-c2cc(-c3ccc(NC(C)=O)cc3)nc(N)c2C#N)ccc1O	·	2	2.4	·	·
N#Cc1cccc(C#N)c1Oc1ccc(S(=O)(=O)Nc2ccc(Cl)cc2)cc1	-3%	-2	·	·	·
COc1cc2c(cc1OC)C[N+](C)(C)CC2	-1%	-6	-3.0	1	·
NNC(=O)c1ccc(OCC2CC(c3ccc(Cl)cc3)=NO2)cc1 (stereo not drawn)	18%	66	4.2	·	·
O=C(NCc1cccnc1)c1ccc(N2CCOCC2)c([N+](=O)[O-])c1	-3%	1	-0.3	1	·
CCn1cc(S(=O)(=O)c2ccc(OC)cc2)c(=O)c2cc(F)c(N3CCN(C)CC3)cc21	·	?	-2.3	·	·
CC(C)(C)c1ccc(C(=O)NNC(=O)C(=O)N2CCCCC2)cc1	8%	?	-5.5	-7	-7
Cn1c2c(c3ccccc31)CCN=C2c1ccccc1	-2%	0	-14	·	·
CCCN(CCC)S(=O)(=O)c1ccc(C(=O)OCCN2C(=O)c3cccc4c(N5CCOCC5)ccc(c34)C2=O)cc1	-17%	-7	-34	1	-28
CCOC(=O)N1CCN(C(=O)c2cn(CC)c3ccc(S(=O)(=O)N4CCC(C)CC4)cc3c2=O)CC1	-3%	6	-2.2	10	·
CCN(C(=O)CN1CCN(c2ccccc2)CC1)c1c(N)n(Cc2ccccc2)c(=O)[nH]c1=O	3%	-13	0.1	4	-43
Following part.
SMILES	Mtb H37Rv	Mtb bLac sens	RecA splice inh	Arbovirus inh	YopH PTP inh	others
CC1(c2ccccc2)CC(C)(C)N2C(=O)C(=O)c3cccc1c32 (stereo not drawn)	-7%	-9	6.5	-34	·
CCn1c(C)c(C(=O)O)c2cc(OC)ccc21	-6%	-4	-3.2	-4	-27
COc1ccc2oc(C(=O)NCC3CCCO3)c(C)c2c1 (stereo not drawn)	·	-10	3.6	·	·
CCOc1ccc(NC(=O)CCS(=O)(=O)c2ccc(C)cc2)cc1	·	35	0.3	·	·
CN1C(=O)C(c2ccccc2[N+](=O)[O-])C(=O)c2ccccc21 (stereo not drawn)	·	-4	0.2	·	·
C=CCn1cc(-c2cccc(Cl)c2)cc(C#N)c1=O	-11%	0	-8.4	2	-15
CC1S/C(=C(\C#N)C(=O)NCc2ccco2)N(Cc2ccco2)C1=O (stereo not drawn)	-2%	-11	-5.4	1	-49
COc1ccc(CNc2cc(C)ccn2)c(O)c1	·	0	-0.5	·	·
N#CC1=C(N)Oc2n[nH]c(-c3cccs3)c2C1c1ccco1 (stereo not drawn)	-15%	0	83*	8	-16
CCOC(=O)C1CCN(c2cc(=O)n(C3CCCCC3)c(=O)[nH]2)CC1	-1%	-16	-4.5	-1	-18
Cc1nc(C(=O)NCc2ccccc2)sc1C1(C)CC(c2ccccc2)=NO1 (stereo not drawn)	6%	3	0.8	·	·
O=C(CSc1cn(CC(=O)N2CCCCC2)c2ccccc12)NCC1CCCO1 (stereo not drawn)	-4%	7	2.0	18	·
Cc1cc(C)c(NC(=O)CSc2nnc(-c3ccccn3)n2N)c(Cl)c1	-4%	-4	-1.0	·	·
O=C(OCCN1CCCC1=O)c1cncc(Br)c1	-6%	-6	0.2	-5	4
O=C(CSc1nnc(-c2ccccc2Cl)o1)Oc1ccc(Br)cc1	0%	-13	61*	-5	-18
COC(=O)C1=C(C)Nc2c(c(=O)n(C)c(=O)n2C)C1c1ccncc1 (stereo not drawn)	-6%	-6	-2.1	0	-31
